gsp agonist = qHTS for Agonist of gsp, the Etiologic Mutation Responsible for Fibrous Dysplasia/McCune-Albright Syndrome: qHTS | gsp mutant cells, cAMP HTRF, 30 min; control for the full effect not named in the record | hit rate 0.13% among 340,000 | Potency, µM (doses to about 76.9 µM), for the others: at the highest dose activation (cAMP increase), usual class: activators; active = well fitted activation curve with a large enough effect; inconclusive = small, poorly fitted or top-dose-only effect, or another doubt; inactive = no such curve, though single readings can be large or run the other way; cell line not stated here;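 also: phosphodiesterase inhibitor Ro 20-1724 added with compounds to block cAMP breakdown; potency is read from the fitted curve at half-maximal effect; nearly all actives have a fitted effect of over 60% in size; about a fifth of the inactives were tested at one dose only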
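Cells stably selected in G418 were plated at 2000/well, grown 16-24 hr, then given compounds in DMSO with the PDE inhibitor […] (300 uM solution added) for 30 min at 37C; cAMP was read by HTRF.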
D2 ag = Beta-Arrestin HTS for Positive Allosteric Modulators of the Human D2 Dopamine Receptor: Agonists; D(2) dopamine receptor (Homo sapiens), P14416; DiscoveRx PathHunter D2 beta-arrestin, luminescence, 90 min; 100% = 57 uM dopamine signal; AID 624465, 2012; hit rate 0.084% among 360,000; activation, % (test concentration not listed); in the data active = activation above about 40%; inconclusive = about 15% to 40%; inactive = below about 15%; also: compound concentration not given in the record; the text of the record calls up to 30% inactive
Target sequence (P14416 whole entry, looked up): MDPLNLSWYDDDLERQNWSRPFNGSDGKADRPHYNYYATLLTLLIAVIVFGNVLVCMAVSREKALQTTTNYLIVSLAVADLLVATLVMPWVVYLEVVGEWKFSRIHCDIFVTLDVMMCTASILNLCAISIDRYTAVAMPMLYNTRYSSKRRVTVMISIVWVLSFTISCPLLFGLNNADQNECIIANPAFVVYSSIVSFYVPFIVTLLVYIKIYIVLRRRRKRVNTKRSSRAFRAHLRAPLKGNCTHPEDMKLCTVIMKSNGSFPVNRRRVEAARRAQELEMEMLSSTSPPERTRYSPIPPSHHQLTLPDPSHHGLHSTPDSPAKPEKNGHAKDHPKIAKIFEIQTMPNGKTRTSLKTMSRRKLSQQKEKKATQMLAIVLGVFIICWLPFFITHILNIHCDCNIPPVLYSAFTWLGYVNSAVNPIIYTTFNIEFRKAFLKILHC
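DiscoveRx PathHunter D2 beta-arrestin cells (2,100/well) attached overnight, then compound-stimulated 90 min at 37 C in HBSS/10 mM HEPES/0.1% Tween-20 buffer; beta-galactosidase complementation read by luminescence after 1 h at ambient temperature. Dopamine 57 uM final (EC100) as control.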
D2 potentiator = Beta-Arrestin HTS for Positive Allosteric Modulators of the Human D2 Dopamine Receptor: Potentiators; D(2) dopamine receptor (Homo sapiens), P14416; DiscoveRx D2 beta-arrestin cells, luminescence, 90 min; 100% = 57 uM dopamine signal; potentiation, % (concentration not given with the values); hit rate 0.23% among 360,000; AID 624464, 2012; active = potentiation of 50% or more; inconclusive = 30% to 50%; inactive = 30% or less;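 also: compound concentration not given in the record; tested on top of an EC20 dose of dopamine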
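PathHunter D2 cells, attached overnight at 37 deg C, received compound in DMSO plus dopamine at EC20 (50 nM final) for 90 min at 37 deg C. Beta-arrestin recruitment was read as luminescence after 1 h with detection reagent at ambient temperature.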
gsp antag = qHTS for Antagonists of gsp, the Etiologic Mutation Responsible for Fibrous Dysplasia/McCune-Albright Syndrome: qHTS. gsp-mutant cells, cAMP HTRF, 30 min; control for the full effect not named in the record. Potency, µM (top dose mostly 76.9 µM), inactives show at the highest dose activity change, negative = inhibition, usual class: inhibitors. hit rate 0.4% among 340,000; active = falling curve of any shape with a large fitted effect; inconclusive = falling curve, mostly with a smaller effect; inactive = flat or rising curve; cell line not stated here;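 also: intracellular cAMP measured with PDE inhibitor Ro 20-1724 present during compound exposure; potency is read from the fitted curve at half-maximal effect; % is scaled to controls: 0 for no effect and ±100 for the full control effect; nearly all actives have a fitted effect of over 65% in size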
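G418-selected cells were plated in DMEM/10% FBS for 16-24 h at 37C, then treated with compounds plus the PDE inhibitor […] (300 uM solution added) for 30 min at 37C. Intracellular cAMP was measured by HTRF after 30 min lysis at room temperature.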
CtBP-E1A inh = qHTS Assay for Inhibitors of the CtBP/E1A Interaction; activity change, % (concentration not given with the values); CtBP / adenovirus E1A interaction (AlphaScreen); hit rate 0.49% among 340,000; AlphaScreen GST-E1A/His-CtBP binding, 1536-well; active compounds read low; control for the full effect not named in the record; in the data active means activity change below about -65%; inconclusive means about -30% to -65%; inactive means above about -30%; also: % is scaled to controls: 0 for no effect and ±100 for the full control effect
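GST-E1A and His-tagged CtBP (125 nM each as 5X stock) were preincubated with pin-transferred compound for 2 h at 37 °C in the dark, then glutathione donor and nickel acceptor beads were added for 1 h before AlphaScreen reading.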
Six1-Eya2 blk = qHTS Assay for Inhibitors of the Six1/Eya2 Interaction | Homeobox protein SIX1 (Homo sapiens) + Protein phosphatase EYA2 (Homo sapiens), … | AlphaScreen GST-Six1/His-Eya2 binding, biochemical; active compounds read low; control for the full effect not named in the record | activity change, % (concentration not given with the values) | hit rate 0.56% among 360,000 | AID 651725, 2012; in the data active = activity change below about -65%; inconclusive = about -30% to -65%; inactive = above about -30%; also: % is scaled to controls: 0 for no effect and ±100 for the full control effect
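Six1/Eya2 binding was read as AlphaScreen signal after compounds were pinned into GST-Six1 plus His-tagged Eya2 (5X stock 250/500 nM) in pH 8.0 Tris/NaCl/TCEP buffer, beads added, then incubated 1 h, 37 C, dark.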
The depositor's hits bear a star; ? = inconclusive; · = not tested or not shown; & = joins results of further samples; [ ] = remark or other dose. This is a random part of the collection (roughly 1.4% active in at least one column).

SMILES | gsp agonist | D2 ag | D2 potentiator | gsp antag | CtBP-E1A inh | Six1-Eya2 blk
CNC(=O)c1ccc(-c2ccccc2)s1 | -2% | 3.3 | -4 | 1% | 6 | 7
CN(CCN(C)C(C)(C)C)C(=O)C(c1ccccc1)c1ccccc1 | 21%[15.4 µM] | -3.3 | -2 | 2% | 6 | 10
CCOC(=O)c1cc(-c2cccc([N+](=O)[O-])c2)nc2[nH]c(=O)[nH]c(=O)c12 | -101%[inhibitor] | -1.1 | -8 | 2% | · | -4
COc1cc(OC)cc(C(=O)NCCCCCCNC(=O)c2cc(OC)cc(OC)c2)c1 | ? | -1.8 | -23 | 6% | -15 | -1
Cc1nc(Oc2ccc(S(=O)(=O)N3CCOCC3)cc2Cl)c2c3c(sc2n1)CCCC3 | 11% | -2.7 | -15 | -5% | -6 | -10
CC1CCCCN1C(=O)c1ccccc1OC1CCN(S(C)(=O)=O)CC1 (stereo not drawn) | -4% | -1.2 | -7 | 8% | -2 | -1
CCC1(C)Cc2c(sc3nc(SCC(=O)O)[nH]c(=O)c23)CO1 (stereo not drawn) | 1% | -2.9 | -5 | -4% | 10 | -2
CSCC[C@H](NC(=O)c1cccnc1)c1nnc2ccccn12 | ? | -3.6 | -9 | 6% | 7 | 6
CCN1CCN(Cc2ccc(NC(=O)c3cc(NC(=O)c4cncc(-c5ccc(C#N)cc5)c4)cc(OC)c3)cc2C(F)(F)F)CC1 | 10% | 0.7&-0.7 | 0&-7 | -5% | -17&-10 | 0&-7
CN(C(=O)c1ccc(NC(=O)Cc2ccccc2)cc1)c1ccccc1 | 2% | -4.3 | -17 | -11% | 13 | -2
COc1cc(OC)cc(C(=O)N[C@H](C(=O)N2CCc3ccccc32)C(C)C)c1 | -1%[15.4 µM] | 3.1 | -17 | -3% | 13 | -2
O=c1oc(CCO)cc2ccc(Br)cc12 | · | -0.8 | · | 12% | 6 | 8
Cc1cc(C(F)(F)F)nn1C(=O)c1cccnc1Cl | 6% | -3.4 | 0 | 20% | 7 | 6
Cc1ccc(C(=O)N(C)CC(=O)Nc2ccc(F)c(F)c2F)o1 | 7%[15.4 µM] | -2.9 | -1 | -17% | 0 | 0
CCOc1ccc(-n2nc3c(SCCN4CCCC4)nnc(C)c3c2C)cc1 | 28%[15.4 µM] | -4.6 | -11 | -7% | -10 | 3
CCCCNC(=O)C12CCC(C)(C(=O)C1Br)C2(C)C (stereo not drawn) | -2% | 1.9 | -18 | 20% | 2 | 0
O=C(Cc1ccc(Cl)cc1)c1c[nH]c(C(=O)NCc2cccnc2)c1 | ? | 1.9 | -26 | -1% | · | -1
Cc1cccc(NC(=O)CNC(=O)Cn2cc(C(F)(F)F)cc(Cl)c2=O)c1C | -11%[15.4 µM] | -6.0 | -3 | 8% | 8 | -5
OCCN(CCO)Cc1ccc(Br)cc1 | -6% | -6.1 | -12 | 8% | 1 | 0
O=C(/C=C/c1ccccc1)c1ccc2c3c(cccc13)CC2 | 20%[15.4 µM] | -3.1 | 2 | 0% | -18 | -11
CCn1c(=O)cc(OCC(=O)Nc2ccc3c(c2)OCCO3)c2ccccc21 | 9% | -1.3 | 11 | ? | -23 | -22
COc1ccc(-n2c(C)csc2=S)cc1 | -12% | -5.2 | -10 | 1% | 2 | -1
CCCNC(=O)Nc1nnc(C2CC2)s1 | -37%[inhibitor] | -3.6 | -5 | -5% | 15 | 8
O=C(CN1C(=O)C2CCCCN2C(=O)c2ccccc21)Nc1ccc(F)cc1 (stereo not drawn) | -23% | 3.0 | 0 | 7% | 3 | -3
CCOc1ccccc1NC(=O)NNS(=O)(=O)c1cc(OC)ccc1OC | 4%[15.4 µM] | 3.3 | -9 | -18% | 15 | 3
C(=N\n1cnnc1)/c1ccccn1 | 3% | 1.7 | 8 | 7% | 0 | 0
CCn1c(SCC(=O)NC2CCCC2)nnc1C(C)NC(=O)c1ccccc1Br (stereo not drawn) | 3% | -3.8 | 2 | -17% | 27 | 12
CCc1nnc(NC(=O)CSc2nc(SC)ns2)s1 | 3%[15.4 µM] | 1.1 | 5 | -5% | -11 | -5
COc1ccc2sc3ccccc3c(=O)c2c1OC | 29% | 2.4 | -2 | 4% | -9 | -12
CCCOP(=O)(OCCC)c1nc(-c2ccccc2)oc1NCc1ccccc1 | -17%[15.4 µM] | -3.6 | -8 | -16% | 20 | 10
CCOC(=O)c1nn(-c2ccc(Cl)cc2)c2nc(CC)c(C#N)c(=O)n12 | ? | -1.8 | 8 | 18% | 1 | 5
CCN(CC)c1ccc(C2=NNC(=O)CC2C)cc1[N+](=O)[O-] (stereo not drawn) | 45% | -1.0 | -8 | 3% | -12 | -10
Cn1c(=O)n(CCO)c(=O)c2c1nc(Br)n2Cc1ccccc1 | -21% | -4.8 | -30 | -6% | · | -4
Cc1cccc(-n2c(-c3ccncc3)n[nH]c2=S)c1 | -13% | -4.5 | -3 | -6% | -1 | -16
CSc1ccc(/C=C/C(=O)c2ccc(NC(=O)C(C)C)cc2)cc1 | 2% | -3.5 | -21 | -17% | 4 | -2
Cc1ccc(C(=O)NNC2CC(=O)N(c3ccc4c(c3)OCCO4)C2=O)cc1 (stereo not drawn) | 42% | 1.2 | -1 | 7% | 20 | -3

Only CtBP-E1A inh, Six1-Eya2 blk and gsp agonist, for some of the entries so far:
| Molecule | CtBP-E1A inh | Six1-Eya2 blk | gsp agonist |
| --- | --- | --- | --- |
| CCOc1ccccc1NC(=O)NNS(=O)(=O)c1cc(OC)ccc1OC | 15 | 3 | 4%[15.4 µM] |
| C(=N\n1cnnc1)/c1ccccn1 | 0 | 0 | 3% |
| CCn1c(SCC(=O)NC2CCCC2)nnc1C(C)NC(=O)c1ccccc1Br (stereo not drawn) | 27 | 12 | 3% |
| CCc1nnc(NC(=O)CSc2nc(SC)ns2)s1 | -11 | -5 | 3%[15.4 µM] |
| COc1ccc2sc3ccccc3c(=O)c2c1OC | -9 | -12 | 29% |
| CCCOP(=O)(OCCC)c1nc(-c2ccccc2)oc1NCc1ccccc1 | 20 | 10 | -17%[15.4 µM] |

2 entries from above, as tab-separated lines:
canonical_smiles	gsp agonist	D2 ag	D2 potentiator	gsp antag	CtBP-E1A inh	Six1-Eya2 blk
CCc1nnc(NC(=O)CSc2nc(SC)ns2)s1	3%[15.4 µM]	1.1	5	-5%	-11	-5
Cc1cccc(-n2c(-c3ccncc3)n[nH]c2=S)c1	-13%	-4.5	-3	-6%	-1	-16

Next part:
SMILES | gsp agonist | D2 ag | D2 potentiator | gsp antag | CtBP-E1A inh | Six1-Eya2 blk
O=C(c1nc2ccccc2[nH]1)c1ccccc1[N+](=O)[O-] | 11% | 3.7 | 2 | 1% | -3 | 2
CCCCn1c(N)c(-c2nc3ccccc3o2)c2c([N+](=O)[O-])nn(C)c(=O)c21 | 8%[15.4 µM] | 0.6 | -8 | -20% | -8 | 1
COc1ccc(S(=O)(=O)Nc2cccc(S(=O)(=O)N3CCCC3)c2)cc1OC | -44%[inhibitor] | 2.2 | -14 | -1% | -16 | 4
CC(NC(=O)c1ccco1)c1ccc(-n2ccnc2)cc1 (stereo not drawn) | 0%[15.4 µM] | -6.0 | -32 | 7% | 5 | 1
O=C(COC(=O)c1cccc(F)c1)Nc1ccc(Cl)cn1 | -35%[inhibitor] | 11 | -5 | 9% | 4 | -1
COCCCN1C(=O)C(CC(=O)NCCCN(C)C)CC(C(=O)N(C(C)C)C(C)C)=C1C (stereo not drawn) | · | -4.8 | -3 | · | 7 | 0
CCOC(=O)C1=C(N)OC2=C(C(=O)CC(C)C2)C1c1cccnc1 (stereo not drawn) | 5%[15.4 µM] | 1.2 | -3 | -12% | 2 | 2
OCC(O)C1OC(c2ccco2)OC(CO)C1O (stereo not drawn) | 1% | -3.1 | 1 | 8% | 3 | 12
CCOCCCNC(=O)c1ccc(CS(=O)(=O)c2cccc(C(F)(F)F)c2)o1 | -7%[15.4 µM] | 1.7 | -1 | 9% | -5 | 9
CC(=O)NC12CC3CC(C1)CC(C(=O)OCC(=O)Nc1c(F)cccc1F)(C3)C2 | -23% | 1.5 | -7 | 6% | 2 | 7
Cc1c(C(=O)Nc2ccncc2)oc2ccccc12 | 3% | 2.6 | 2 | -12% | 0 | -1
N#CCSc1nnc(Cc2cccc3ccccc23)n1C1CCCCC1 | 1% | -3.3 | -23 | 1% | -2 | -3
CCCn1c(=O)c(C(=O)OCC)c(O)c2cc(Br)ccc21 | ? | -2.5 | -4 | -16% | 2 | 5
Cn1cccc1/C=C1\SC(=S)N(NC(=O)c2ccccc2)C1=O | 0%[15.4 µM] | -9.3 | -14 | -7% | 3 | ?
COc1ccc(Nc2ncnc3nc[nH]c23)cc1OC | ? | -4.2 | -6 | -1% | -7 | -5
O=C(Cn1nnc(-c2ccccc2)n1)NNC(=O)c1ccccc1 | 26%[15.4 µM] | -3.5 | -5 | 2% | 28 | 22
CC(C)CC(C(=O)O)C(C)CC(=O)Nc1ccn(-c2ccccc2)n1 (stereo not drawn) | -15% | -3.0 | -2 | 2% | 5 | 0
CC1CCCC(C)N1C(=O)COC(=O)c1cncc(Br)c1 (stereo not drawn) | -6% | -4.5 | -3 | 1% | -11 | 3
COc1ccc(NC(=O)C2(C)CCN2Cc2ccc(OC)c3ccccc23)cc1OC (stereo not drawn) | · | -0.7 | -5 | · | ? | -23
COC1CCCCC1Nc1cc(C)ccc1C (stereo not drawn) | -39%[inhibitor] | 0.6 | -11 | -7% | 42 | 4
COC(C(=O)NC1CC1)c1ccccc1 (stereo not drawn) | 16% | 0.8 | 5 | 16% | 0 | 6
O=C(NCC1COc2ccccc2O1)C1CCN(S(=O)(=O)c2cccc3nsnc23)CC1 (stereo not drawn) | -20% | -4.2 | -9 | -13% | -1 | -3
O=C(Nc1ccc(-n2ccc(C(F)(F)F)n2)cc1)c1cccs1 | -1% | 0.3 | -15 | -7% | 8 | 7
O=C(CSc1ncnc2nc[nH]c12)N1CCN(c2ccccc2)CC1 | ? | 1.7 | 0 | 17% | -2 | 0
CC(NC(=O)C1(C)CC1(Br)Br)C(C)(C)C (stereo not drawn) | 4% | 1.3 | 9 | 1% | -2 | 8
Cc1csc2c(N3CCN(C(=O)Nc4ccc(Cl)c(Cl)c4)CC3)ncnc12 | 11% | 3.3 | -4 | ? | -19 | -10
Cc1ccc([N+](=O)[O-])cc1NC(=O)C(C)NS(=O)(=O)c1ccc(F)cc1 (stereo not drawn) | 6%[15.4 µM] | 1.1 | -13 | 7% | · | 0
CCN=C1SC(CC(=O)NCc2ccccc2)C(=O)N1CC (stereo not drawn) | 12% | -0.6 | -1 | 1% | 11 | 5
